High-throughput results deposited in PubChem BioAssay by National Center for Advancing Translational Sciences (NCATS).
HPGD block – blocks human HPGD enzyme activity; AID 894; 150,000 compounds, 4.3% hits; P15428; Potency, µM, for inactives: top-dose activity change, negative = inhibition, most hits filed as inhibitors; purified HPGD, NADH fluorescence kinetic, PGE2 substrate; active = well fitted inhibition curve with a large enough effect (not every such curve was filed as active); inconclusive = small, poorly fitted or top-dose-only effect, or another doubt; inactive = no such curve, though single readings can be large or run the other way;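 further: top concentration of the series not given in the record; plate controls included wells without enzyme; inactives centre near -10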
Target sequence (P15428 whole entry, looked up): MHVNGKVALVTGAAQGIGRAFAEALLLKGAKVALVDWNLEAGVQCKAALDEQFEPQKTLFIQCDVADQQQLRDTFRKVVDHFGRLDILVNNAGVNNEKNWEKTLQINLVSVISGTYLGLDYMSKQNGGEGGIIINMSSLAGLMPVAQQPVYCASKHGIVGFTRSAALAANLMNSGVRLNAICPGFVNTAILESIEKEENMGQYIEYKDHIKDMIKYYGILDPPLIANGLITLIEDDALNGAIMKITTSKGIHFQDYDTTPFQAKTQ
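NADH formation kinetics: reaction with 30 uM PGE2 and 1 mM NAD+ (final), 20 nM enzyme, Tris-HCl pH 8 with Tween 20, after 15 min compound preincubation at room temperature. Fluorescence change, last versus first of five reads.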
Numbers without * were called inactive; ? = inconclusive; & = joins results of further samples. On the % scale 0 is the no-effect control and ±100 the full control effect; potency means the concentration at half of the fitted maximal effect.

SMILES | HPGD block
CC1CCN(c2nc3ccccc3nc2C(C#N)S(=O)(=O)c2ccccc2)CC1 (configuration not stated) | -7%
CCOC(=O)Cc1csc(SCc2nc3ccccc3c(=O)[nH]2)n1 | -14%
O=C(CSc1nnc(-c2cccnc2)n1CCN1CCCCC1)Nc1cccc(Cl)c1 | -14%
Cc1ccc(C)o1 | -7%
O=C(NC1(C(=O)NC2CCCC2)CCCCC1)c1ccc2c(c1)OCO2 | -5%
CCOC(=O)C(C)Oc1cccc2c(=O)n(CC(=O)N3CCc4ccccc43)ccc12 (configuration not stated) | -10%
COc1ccc(-c2ccc(C#N)c(OC(=O)c3c(Cl)cccc3Cl)n2)cc1 | ?
O=C(c1ccco1)N1CCC2(CCCN(c3ccccn3)C2)CC1 | -27%
CSc1nc(C)cc(/C=C\c2ccccc2)c1C#N | ?
C=C1C(C(=O)N2CCN(C)CC2)C1C(=O)N1CCN(C)CC1 (configuration not stated) | -13%
O=S(=O)(Nc1ccc2oc(-c3ccccc3)nc2c1)c1ccccc1 | ?
CC(=O)NCCCc1c[nH]c2ccc(Cl)cc12 | -14%
O=S(=O)(NC1CCCC1)c1ccc(S(=O)(=O)NC2CCCC2)cc1 | -12%
O=C(NC1=NCCS1)c1sc2cc(Cl)cc(Cl)c2c1Cl | -8%
Cc1ccc(C(=O)Nc2ccc(Cl)cn2)cc1S(=O)(=O)N1CCOCC1 | -9%
CC1(C)[C@@H](O)CC[C@]2(C)C3C(=O)C=C4C5C[C@@](C)(C(=O)O)CC[C@]5(C)CC[C@@]4(C)[C@]3(C)CC[C@@H]12 (some centres not stated) | -1%
Cc1nc(-c2coc3cc(OCC(=O)O)ccc3c2=O)cs1 | ?
O=C1COc2ccc(C(=O)c3ccccc3C(=O)NCc3ccco3)cc2N1 | -4%
CCCCn1c(Cc2ccccc2)nnc1SCC(=O)Nc1cc(C)on1 | 2%
Cc1ccc(SCC(=O)NNC(=O)C2CCCCC2)cc1 | 0%
COc1ccc(NC(C)C(=O)Nc2ccc(C#N)cc2)cc1Cl (configuration not stated) | -10%
CCOc1ccc(-c2ccc(C=O)o2)c([N+](=O)[O-])c1 | ?
CCN(Cc1ccccc1)C(=O)CCc1nc(-c2ccc(C)cc2)no1 | ?
CC(=O)C1=C(O)C(=O)N(Cc2cccnc2)C1c1ccccc1Cl (configuration not stated) | -18%
COc1ccc(NC(=O)COC(=O)CCCc2c[nH]c3ccccc23)cc1OC | -3%
CCCCCC1=C2CNC(Cc3ccccc3)(C(=O)OC)C=C2C(C)C1=O (configuration not stated) | -6%
CCOC(=O)CN1C(=N)N(c2nc(NC(C)C)nc(NC(C)C)n2)CC1=O | -6%
CC(C)COC(=O)N1CC(O)CC1C(=O)O (configuration not stated) | -6%
CO[C@@H]1[C@@H](OC(N)=O)[C@@H](O)[C@H](Oc2ccc3c(O)c(NC(=O)c4ccc(O)c(CC=C(C)C)c4)c(=O)oc3c2C)OC1(C)C | -10%
CCCN1CC=C2C(C#N)=C(N)C(C#N)(C#N)C(c3cccc(OC)c3OC)C2C1 (configuration not stated) | ?
O=C(Nc1ccc2c(c1)OCO2)[C@@H]1[C@@H]2C(=O)N(C3CCCCC3)C(=O)[C@@H]2C2c3ccccc3C=CN21 (some centres not stated) | -10%
O=C(CCn1c(=O)sc2ccccc21)NC1=NCCS1 | -3%
CC(=O)N1C2(C=CC1(C)C(=O)NCCN1CCOCC1)CCCCC2 (configuration not stated) | -9%
O=C(CSC(=S)N1CCOCC1)Nc1nc(-c2ccccc2)c(-c2ccccc2)o1 | -13%
O=S(=O)(NCc1cccnc1)c1ccc(Cl)c(Cl)c1 | -14%
CS(=O)(=O)N(CCc1ccccc1)CC(=O)NCc1ccco1 | 5%
C=CCNC(=O)c1onc(CSc2ccc(C)c(C)c2)c1C(=O)O | -18%
CCCCOC(=O)C1=C(C)NC2=C(C(=O)CCC2)C1c1cc(OC)ccc1OC (configuration not stated) | -15%
CN(CC/C=C1/c2ccccc2CSc2ccccc21)CCCO | 2%
O=C(CSc1ccc(-c2cccs2)nn1)NCc1ccccc1Cl | 32µM*
O=C(Cn1cnc2c(cnn2-c2ccccc2)c1=O)N1CCN(c2ccc(F)cc2)CC1 | -17%
CCn1cc(/C=C/C(=O)Nc2ccc(C)cc2Br)cn1 | 5%
Cc1cc(O)c(C(C)C)cc1N=C1CSC(=O)N1 | 32µM*
CC1CCc2nn(CC(=O)NCCCN3CCCCC3)cc2C1 (configuration not stated) | -5%
CCc1sc(N(C(=O)Cc2ccccc2)c2ccccc2F)nc1-c1ccc(C)cc1 | -5%
CCc1nnc(NC(=O)COC(=O)CN2C(=O)c3ccccc3C2=O)s1 | -5%
CCN(c1ccccc1)S(=O)(=O)c1cc(NC(=O)Nc2ccccc2C#N)ccc1Cl | -3%
COC(=O)NNC(=O)C12CC3CC(CC(C3)C1)C2 | -11%
FC(F)(F)c1ccccc1-c1cncnc1Nc1ccccc1 | 0%
CC1(C)CC(=NO)CC(C)(C)N1 | -6%
Cc1ccc(C)c(NC(=S)NNC(=O)c2csc3c2CCC(C)C3)c1 (configuration not stated) | -10%
Cc1cccc(C)c1NC(=O)CSc1nnc([C@@H]2CCCN2C(=O)OC(C)(C)C)o1 | -18%
C/C=C/c1ccc(OCCCCOc2ccccc2F)c(OC)c1 | -17%
O=C(NCC1CCCO1)c1ccc(NC(=O)C2CCCCC2C(=O)O)cc1 (configuration not stated) | -9%
CC1CCN(CC(O)COC2CCC(C(C)(C)C)CC2)CC1 (configuration not stated) | -3%
CCN(CC)C(=O)Sc1cccc2cccnc12 | ?
COc1ccc(C(=O)CCc2nc3ccccc3s2)cc1 | -20%
CN(C)c1ccc(C(=C2C=CC(=[N+](C)C)C=C2)c2ccc(N(C)C)cc2)cc1 | 0%&-5%
FC(F)(F)c1cnc(Oc2ccccc2-c2nnc(-c3ccc(Cl)cc3)o2)c(Cl)c1 | ?
Cc1[nH]c(C(=O)N2CCCCC2)c(C)c1C(=O)NC1CCCCC1 | -22%

Quoted from the listing.
In HPGD block, `CC1CCN(CC(O)COC2CCC(C(C)(C)C)CC2)CC1` (configuration not stated) reads -3%
In HPGD block, `Cc1ccc(C)c(NC(=S)NNC(=O)c2csc3c2CCC(C)C3)c1` (configuration not stated) reads -10%
In HPGD block, `CC1CCc2nn(CC(=O)NCCCN3CCCCC3)cc2C1` (configuration not stated) reads -5%

Next section:
SMILES | HPGD block
CC(C)Oc1ccccc1/C=N/Nc1ccccc1[N+](=O)[O-] | -5%
CC(=O)c1cnc(SCCN2C(=O)c3ccccc3C2=O)nc1C | -2%
COc1ccc(CCNc2nc(-c3sc(N)nc3C)cs2)cc1OC | -10%
O=C(CN(CCc1ccccc1)C(=O)CNS(=O)(=O)c1ccc(F)cc1)NCc1ccco1 | 0%
O=C(CSc1nc(C2CC2)nc2ccccc12)N1c2ccccc2Sc2ccc(C(F)(F)F)cc21 | -10%
COC(=O)CC1C(=O)NCCN1C(=S)Nc1cccc(C)c1 (configuration not stated) | -1%
N#CCCN1CCN(C(=S)c2ccc(-c3cc(Cl)ccc3Cl)o2)CC1 | -14%
CCn1c(C(=O)N2CCCC(C(=O)NCCc3ccc(C)cc3)C2)cc2sccc21 (configuration not stated) | -5%
COCCCN(C(=S)Nc1cc(Cl)cc(Cl)c1)C(C)c1ccncc1 (configuration not stated) | -17%
COC(=O)c1ccc(COc2ccccc2/C=C(\C#N)C(=O)NC(C)C)cc1 | ?
COc1ccc(C(C)N2CC34C=CC(O3)C(C(=O)O)C4C2=O)cc1 (configuration not stated) | 2%
Cc1cc(C)c(C#N)c(SCC(=O)Nc2ccc3c(c2)OCO3)n1 | -10%
CCCn1c(=O)c2c(c3ccccc31)OCC(=O)N2 | -2%
N#Cc1c(NC(NC(=O)c2ccco2)C(=O)c2ccccc2)sc2c1CCCC2 (configuration not stated) | -11%
O=C(CCc1nc2ccccc2c(=O)[nH]1)OCC(=O)c1ccc(C2CCCCC2)cc1 | -6%
CCc1ccccc1NC(=O)Cn1nnc(-c2cccs2)n1 | -10%
O=C(O)C1CCCCC1C(=O)NCc1ccncc1 (configuration not stated) | 0%
C=CCn1c(SCC(=O)Nc2ccc(C)cc2C)nnc1-c1cccnc1 | -8%
COc1ccc(N2CCN(C(=O)CCNS(=O)(=O)c3ccc4c(c3)CCC(=O)N4)CC2)cc1 | -4%
CCOC(=O)C1=C(C)n2c(s/c(=C3\C(=O)Nc4ccccc43)c2=O)=NC1c1ccc(OC)cc1 (configuration not stated) | -18%

The closing 6 entries of the section above are carried over, then new ones follow:
SMILES | HPGD block
O=C(CCc1nc2ccccc2c(=O)[nH]1)OCC(=O)c1ccc(C2CCCCC2)cc1 | -6%
CCc1ccccc1NC(=O)Cn1nnc(-c2cccs2)n1 | -10%
O=C(O)C1CCCCC1C(=O)NCc1ccncc1 (configuration not stated) | 0%
C=CCn1c(SCC(=O)Nc2ccc(C)cc2C)nnc1-c1cccnc1 | -8%
COc1ccc(N2CCN(C(=O)CCNS(=O)(=O)c3ccc4c(c3)CCC(=O)N4)CC2)cc1 | -4%
CCOC(=O)C1=C(C)n2c(s/c(=C3\C(=O)Nc4ccccc43)c2=O)=NC1c1ccc(OC)cc1 (configuration not stated) | -18%
Cn1nc(C(F)(F)F)c(/C=N/OC(=O)c2ccccc2)c1Sc1ccc(Cl)cc1 | -8%
CC1(C)CC2CC(C)(CN2S(=O)(=O)c2ccc(C(=O)Nc3ccc(Cl)c(S(=O)(=O)N4CCOCC4)c3)cc2)C1 (configuration not stated) | ?
CC(=O)Nc1ccc(NC(=O)C2CCCN(c3nnc(-n4cccc4)s3)C2)cc1 (configuration not stated) | -5%
COc1ccc(N2C(=O)CSC2c2ccncc2)cc1 (configuration not stated) | 3%
COc1ccc(NC(=O)N2CCCC3(CCN(S(C)(=O)=O)CC3)C2)cc1 | 3%
OC[C@@H]1O[C@@H](O)[C@H](N=Cc2ccc3c(c2)OCO3)[C@@H](O)[C@@H]1O | -5%
CCCCCC(=O)N1CC2(C)CN(C(=O)CCCCC)CC(C)(C1)C2=O | 7%
CN(c1ccccc1)S(=O)(=O)c1ccc(NC(=O)c2ccccc2)cc1 | -26%
COc1ccc(CCNC(=O)c2nc3ncccn3n2)cc1OC | 2%
FC(F)(F)c1nc2ccccc2nc1N/N=C/c1c(Cl)cccc1Cl | -14%
O=c1cc(N2CCN(Cc3ccccc3)CC2)[nH]c(=O)n1Cc1ccc(F)cc1 | -5%
CN(C)C(/C=C/Nc1ccc(F)cc1)=C(C#N)C#N | -9%
Cc1ccc(C(=O)Nc2nc(=O)n(C(=O)CC(C)C)s2)cc1 | -1%
CCOC(=O)C(NC(=O)CC)(Nc1ccccc1)C(F)(F)F (configuration not stated) | -2%
CCc1nnc(NC(=O)CSc2nnc(-c3ccc(S(=O)(=O)N(CC)CC)cc3)n2CC)s1 | -5%
CCCCOCCCNC(=O)CN1C(=O)c2ccccc2C1=O | -12%
CC[C@@H]1O[C@]2(C=C[C@@H]1C)C[C@H]1C[C@H](CC=C(C)[C@@H](O[C@@H]3C[C@H](OC)[C@H](O[C@@H]4C[C@H](OC)[C@H](O)[C@H](C)O4)[C@H](C)O3)[C@@H](C)C=CC=C3CO[C@@H]4[C@@H](O)C(C)=C[C@@H](C(=O)O1)[C@]34O)O2 | -9%
O=C(CSc1n[nH]c(-c2ccncc2)n1)NC1CCS(=O)(=O)C1 (configuration not stated) | ?
COc1ccc(-c2cc(C(F)(F)F)nc(N3CCCCC3)n2)cc1OC | ?
COc1cc2ccccc2cc1C(=O)Nc1ccc(Cc2ccncc2)cc1 | -30%

Shown as a hit in HPGD block, among the entries above:
SMILES | HPGD block
O=C(CSc1ccc(-c2cccs2)nn1)NCc1ccccc1Cl | 32µM*
Cc1cc(O)c(C(C)C)cc1N=C1CSC(=O)N1 | 32µM*

An excerpt from above in order of the HPGD block value, smallest number first.
structure	HPGD block
COc1cc2ccccc2cc1C(=O)Nc1ccc(Cc2ccncc2)cc1	-30%
OC[C@@H]1O[C@@H](O)[C@H](N=Cc2ccc3c(c2)OCO3)[C@@H](O)[C@@H]1O	-5%
COc1ccc(NC(=O)N2CCCC3(CCN(S(C)(=O)=O)CC3)C2)cc1	3%

The listing continues:
SMILES | HPGD block
COc1ccccc1OC(=O)c1cc(Cl)nc2ccccc12 | -20%
COc1ccc(/C=N/Nc2cc(C)nc(N)n2)cc1 | ?
CCOC(=O)CSc1nnc(-c2ccc(NS(=O)(=O)c3ccc(C)cc3)cc2)o1 | ?
COc1cccc(CN2CCN(S(=O)(=O)c3ccc(Br)cc3)CC2)c1 | -4%
CC1CN(C(=O)C2CCCCC2)C(C)CN1C(=O)C1CCCCC1 (configuration not stated) | 0%
O=C(NCCc1ccccn1)c1ccc(COc2ccccc2)o1 | -11%
CCOC(=O)c1[nH]c2cc(OC)c(OC)cc2c1NC(=O)CN(C)C1CCCCC1 | ?
C/C(Cn1cnc([N+](=O)[O-])n1)=N\NC(=O)c1cccc(F)c1 | 0%
COc1cccc([C@H](O)Cn2cc(-c3ccc(CON=C(C)C)cc3)nn2)c1 | -20%
CCc1c(C)c2ccc(OCC(=O)N(C)C)c(C)c2oc1=O | ?
CC1CN=C(NC2CCCCC2C)S1 (configuration not stated) | -2%
COC(=O)c1ccc(C23CC4(C2)[C@H](CN(Cc2ccc(-c5ccccc5)cc2)[C@@H]4c2ccccc2)C3c2ccc(C(F)(F)F)cc2)cc1 (some centres not stated) | 3%
COCCn1c(SCC(=O)NCc2ccc3c(c2)OCO3)nnc1-c1c[nH]c2ccccc12 | -3%
Cc1nn(C)c(C)c1S(=O)(=O)N1CCC(C(=O)NCC2COc3ccccc3O2)CC1 (configuration not stated) | -6%
CC(=O)c1c(C)[nH]c(C(=O)Nc2cccnc2)c1C | -14%

Not all compounds are listed (hit frequency here may not be typical).
